Vif TR-FRET – HIV-1 Vif–A3G interaction blockers – biochemical, TR-FRET, GST-Vif 1-94, biotin-A3G peptide, dose response retest, primary screen (AID 1117319). TR-FRET GST-Vif / biotin-A3G peptide binding; higher % means a stronger effect; test concentration not given here; strong numbers were not always called active. inhibition, %; hits with a dose series show IC50 in µM. hit rate 0.57% among 260,000;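 active means above the screen mean plus three standard deviations and confirmed in dose response; inconclusive means results disagree or hit not tested in dose response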;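 further: Vif residues 1-94 fused to GST binding biotinylated APOBEC3G peptide 110-148; 0% = full assay without inhibitor and 100% = GST in place of GST-Vif; retest series ran down from 100 µM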
UCH37 DUB inh – human UCH37 deubiquitinating enzyme inhibition. Q9Y5K5. inhibition, % (concentration not given with the values). purified proteasome/UCH37, Ub-AMC cleavage fluorescence. hit rate 0.33% among 330,000;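 active means mean of two replicates above 20%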;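 further: 0% = compound-free wells with enzyme and 100% = wells lacking proteasome; stock transfer was 100 nL into about 20 µL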
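system = Proteasome-associated human UCH37 deubiquitinase | amount = 0.15 nM proteasome as dispensed | medium = pH 7.4 Tris-HCl (50 mM) with ovalbumin, ATP-MgCl2, DTT | incubation = 30 min preincubation with enzyme, 25 min cleavage at room temperature | detection = AMC fluorescence 355/460 nm | read-out basis = percent inhibition | controls = no-proteasome and no-compound wells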
HNF4A DNA FP – change in binding of human HNF4 alpha to DNA. P41235. HNF4a-FITC DNA binding, fluorescence polarization, 1 h. activity change, % at 10 µM. hit rate 0.3% among 360,000; in the data active means activity change above about 30%, passing the limit was not always enough;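 further: controls were the assay level and a saturating level of protein; the project sought stronger binding though the title names inhibitors; some compounds called inactive have numbers as strong as hits; positive values seem to mean higher polarization but the record does not say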
RanGTP-Imp inh – inhibitors of RanGTP-importin-beta interaction, primary screen, biochemical, FRET, CFP-Ran, YFP-importin-beta, homogeneous. cell-free CFP-Ran/YFP-importin-beta FRET ratio. hit rate 1.1% among 300,000. inhibition, % (no concentration beside the values);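 active means most replicates above 15%; inconclusive means exactly half above 15%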;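 further: 0% = DMSO wells and 100% = Ran loaded with GDP instead of GTP; wells of about 40 µL received 100 nL stock; the first replicate is given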
AF4-AF9 inh – blocks AF4 peptide binding to human AF9; P42568; AlphaScreen, biotin-AF4 peptide binding to FLAG-AF9; inhibition, % at 10 µM; hit rate 0.47% among 350,000; AID 651704;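 active means every replicate reaching a set inhibition limit, whatever the replicate mean, cut at about 25% in these data; inconclusive means mean inhibition reaches that limit but some replicates miss it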;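 further: 0% = plate neutral control median and 100% = total signal loss; the record names both 10 and 1 µM as test concentration; the first replicate is given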
Target sequence (P42568 whole entry, looked up): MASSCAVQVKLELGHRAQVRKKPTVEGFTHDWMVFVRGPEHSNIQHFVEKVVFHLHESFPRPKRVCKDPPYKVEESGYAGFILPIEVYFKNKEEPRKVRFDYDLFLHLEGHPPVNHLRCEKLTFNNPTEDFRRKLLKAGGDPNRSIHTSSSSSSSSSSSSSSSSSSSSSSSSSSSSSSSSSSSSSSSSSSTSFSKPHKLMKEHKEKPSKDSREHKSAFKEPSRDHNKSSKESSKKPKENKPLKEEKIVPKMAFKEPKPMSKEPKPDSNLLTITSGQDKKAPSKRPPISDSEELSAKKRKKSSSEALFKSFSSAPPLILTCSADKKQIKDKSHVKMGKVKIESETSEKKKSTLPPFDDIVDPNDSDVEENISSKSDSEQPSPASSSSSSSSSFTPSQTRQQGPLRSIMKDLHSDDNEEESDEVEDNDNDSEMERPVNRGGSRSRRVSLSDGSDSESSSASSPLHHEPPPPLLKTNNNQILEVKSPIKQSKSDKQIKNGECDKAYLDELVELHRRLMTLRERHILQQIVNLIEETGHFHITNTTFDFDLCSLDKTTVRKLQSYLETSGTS
E coli growth – inhibitors of Escherichia coli growth | OD600, 23 h; stronger effect = lower value | OD600 absorbance (test concentration not listed) | hit rate 0.21% among 330,000;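 active means OD600 absorbance below the run mean of sample wells minus 3.6 SD, in any replicate, cut at about 0.56 in these data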;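 further: stock transfer was 300 nL into about 60 µL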
FGF22 binding – shifts melting point of recombinant human FGF22 | Q9HCT0 | recombinant FGF22 thermal shift, SYPRO orange fluorescence; percent of sucrose octasulfate shift, DMSO zero | calls only at 9.99 µM | hit rate 1.5% among 340,000;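 active means melting point raised past a set limit in the mean and every replicate; inconclusive means no clear call; three in four hits are not shown here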
Target sequence (Q9HCT0 whole entry, looked up): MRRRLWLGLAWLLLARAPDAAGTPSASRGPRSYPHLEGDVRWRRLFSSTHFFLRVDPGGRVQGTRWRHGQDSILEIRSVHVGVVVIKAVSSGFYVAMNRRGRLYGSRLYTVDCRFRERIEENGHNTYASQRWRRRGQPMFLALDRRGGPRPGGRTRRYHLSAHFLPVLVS
* = called active by the depositor; i = inactive; ? = inconclusive; / = not tested or not shown; + = active, no number; & = joins results of further samples.

item	SMILES	FGF22 binding	Vif TR-FRET	AF4-AF9 inh	UCH37 DUB inh	RanGTP-Imp inh	E coli growth	HNF4A DNA FP
1	Cc1cc(Nc2ccc(Cl)cc2)n(-c2ccccc2)n1	/	-1.4%	/	4.3	-1.1	0.777	-0.9
2	Clc1ccc(OCCOCCNCc2ccccc2)cc1Cl	i	2.0%	-8.3	2.1	-0.2	0.624	0.3
3	COc1cccc(C(=O)N(CN2CCCC2=O)c2cccc(Cl)c2)c1OC	/	-0.7%	/	-0.3	-1.9	0.744	0.2
4	CC(c1nc2ccccc2n1Cc1ccccc1)N1CCCCC1 (stereo unspecified)	i	4.7%	2.6	1.4	25.9*	0.671	3.3
5	Oc1c(C=Nc2cccnc2)sc2ccccc12	/	-2.6%	/	17.6	21.6*	0.702	13.7
6	CC(=O)Oc1ccc(N2C(=O)C3C4C=CC(CO)(O4)C3C2=O)cc1 (stereo unspecified)	/	3.9%	/	1.7	1.1	0.793	2.0
7	O=C(NCc1cccnc1)C1CC(c2ccc(Cl)c(Cl)c2)=NO1 (stereo unspecified)	i	/	-0.3	4.7	4.9	0.666	1.1
8	COc1ccccc1Cn1c(=S)[nH]c2cc(C(=O)N3CC(C)CC(C)C3)ccc2c1=O (stereo unspecified)	i	-2.9%	-2.8	/	/	/	1.7
9	COc1ccc(-c2c(C#N)cnc(C)c2C)c(O)c1OC	i	-2.8%	4.6	/	/	/	-4.0
10	O=C(N/C(=C/c1ccc(F)cc1)C(=O)N1CCCCC1)c1ccco1	i	-3.0%	0.6	1.8	-0.1	0.727	0.8
11	CC(=O)c1c(COC(=O)c2ccc(F)cc2)nc2ccccc2[n+]1[O-]	i	-4.5%	1.2	6.6	-0.2	0.668	-1.3
12	Cc1cc(C)n(CC(=O)Nc2cccc(C(F)(F)F)c2)n1	i	-7.7%	0.6	5.7	1.8	0.641	-1.7
13	Cc1cc(C)n(CC(O)COc2ccccc2C)n1 (stereo unspecified)	i	7.3%	1.4	1.3	/	0.654	-3.4
14	O=[N+]([O-])c1cccc(S(=O)(=O)Nc2ccc(-c3ccc(N4CCOCC4)nn3)cc2)c1	+	-0.3%	-0.7	4.3	1.8	0.641	-4.2
15	COc1cccc(C2c3[nH]c4ccccc4c3CCN2Cc2cnc(C)s2)c1OC (stereo unspecified)	i	6.3%	3.1	-5.6	-2.9	0.744	-0.7
16	CCn1c(C)nc2cc(NC(=O)Nc3cccc(C(C)=O)c3)ccc21	i	-8.7%	-4.3	4.1	1.2	0.636	5.0
17	CCOc1ccc(N(CC(=O)Nc2cc(C)ccc2C)S(=O)(=O)c2c(C)[nH]c(=O)[nH]c2=O)cc1	i	/	-0.4	1.6	-1.9	0.674	-2.0
18	O=C(CCc1ccccc1)Oc1ccccc1[N+](=O)[O-]	i	/	-1.7	3.3	2.6	0.619	/
19	Cc1cc(C)cc(N(CC(=O)N2CCCC2)S(C)(=O)=O)c1	i	/	-0.2	1.8	-1.1	0.669	2.1
20	COC(=O)N/N=C/c1cccc(OCCSc2ccc(Cl)cc2)c1	i	15.7%	14.5	/	11.8	/	1.2
21	C#CCNC(=O)C1=C[C@@H](c2cn(C(C)=O)c3ccccc23)C[C@@H](OCCCCO)O1	i	1.6%	-3.5&-1.2	3.1	0.3	/	7.5
22	COC(=O)[C@@H](NS(=O)(=O)c1ccc(F)cc1Br)C(C)C	i	/	-3.7	/	/	/	3.5
23	O=C(c1ccc2c3n(nc2c1)-c1ccc(Cl)cc1CO3)N1CCOCC1	i	1.3%	-0.7	-1.6	-1.9	0.677	0.9
24	CCOC(=O)c1c(C)[nH]c(C(=O)COC(=O)[C@H](C)NC(=O)c2ccccc2Cl)c1C	i	5.2%	2.5	4.6	-6.5	0.686	2.9
25	CCC(C)c1ccccc1NC(=O)COc1ccc(-n2cnnn2)cc1 (stereo unspecified)	i	/	-0.7	0.8	/	0.698	-0.5
26	CCn1cc(C(=O)NCc2ccncc2)c(=O)c2cc(F)c(N3CCN(C(=O)c4ccco4)CC3)cc21	i	2.8%	-1.0	-135.1	8.1	0.071*	5.0
27	CCCN1CCN(CCNC(=O)Nc2ccccc2Cl)CC1	i	-0.3%	0.8	-1.5	1.4	0.696	-1.2
28	CCOC(=O)N1CCN(C(=O)C[C@@H]2C[C@@]3(C(=O)OC)CC(C)(C)CC=C3N(Cc3cccc4ccccc34)C2=O)CC1	i	/	11.3	/	/	/	-5.0
29	N#Cc1c(N2CCOCC2)nsc1-c1ccc(C(F)(F)F)cc1	i	-72.0%	6.7	-1.8	-1.0	0.708	-2.2
30	CCC(C)c1ccccc1NC(=O)C1CCCO1 (stereo unspecified)	/	2.5%	/	-0.8	0.1	0.693	3.0
31	O=C(Nc1ccn(Cc2c(F)c(F)c(F)c(F)c2F)n1)c1cccc(Cn2cc([N+](=O)[O-])cn2)c1	/	2.0%	/	2.8	3.3	0.655	0.6
32	O=C(NCC1CCCCC1)c1ccc(F)c(S(=O)(=O)N2CCOCC2)c1	i	/	-1.0	0.0	/	0.697	2.6
33	O=C(Nc1ccc(S(=O)(=O)N2CCCC2)cc1)c1cccs1	+	23.3%	1.9	3.6	0.7	0.646	2.0
34	Cc1cc(Cn2nc(-c3ccccc3)cc2C(=O)NCc2cccc(Br)c2)on1	i	/	1.8	/	-1.9	/	5.1
35	COc1ccccc1C(=O)NNC(=O)C1CCN(C(=O)OC(C)(C)C)CC1	i	/	-2.5	0.4	0.0	0.646	-0.3
36	COc1cccc(NC(=O)COc2ccccc2)c1	i	/	2.7	2.3	1.4	0.684	7.5
37	CCSc1nnc(NC(=O)CSc2nc3c(c(=O)n2C)SC(C)C3)s1 (stereo unspecified)	/	-3.9%	/	5.0	1.4	0.622	0.1
38	CCOC(=O)C(C)Sc1nc2c(c(=O)[nH]c(=O)n2C)n1CCc1ccccc1 (stereo unspecified)	/	3.6%	/	2.8	/	0.733	-0.8
39	CCCc1nnc(NC(=O)CCC(=O)NCc2ccc(Cl)cc2Cl)s1	i	/	0.5	0.7	4.7	0.726	0.8
40	CC(=O)N1CCOc2ccc(S(=O)(=O)N3CCC(C(=O)NCc4ccc(F)cc4)CC3)cc21	i	-2.1%	-3.3	-1.2	0.1	0.654	-1.4
41	Cc1ccc(SCc2nc3ccccc3n2CC(=O)Nc2ccc(Cl)cc2)cc1	/	15.2%	/	1.4	?	0.713	3.0
42	CC(=O)N/C(=C/c1ccc2c(c1)OCO2)C(=O)N1CCOCC1	i	-1.1%	-11.8	2.3	-7.4	0.665	11.3
43	Cc1ccccc1N1CCN(CC(=O)NCc2ccc(Cl)cc2)CC1	i	/	0.2	1.6	1.5	0.625	1.3
44	Cc1cc(C)cc(N(CC(=O)Nc2cccc(C)n2)S(=O)(=O)c2c(C)noc2C)c1	i	9.7%	-0.5	/	-15.3	/	-1.8
45	O=C(Oc1ccc2ccc(O)cc2c1)C1CCCCC1	i	?	0.2	1.7	-0.8	0.67	16.0
46	COc1ccc(CCNC(=O)C/C(C)=N/NC(=O)Cc2cccc3ccccc23)cc1OC	i	-5.5%	-2.5	/	-0.8	/	-2.8
47	NC(=O)c1ccc(/C=N/O)nc1	i	-7.1%	-1.7	/	3.4	/	1.1
48	Brc1ccc(-c2csc(N3CCCCCC3)n2)cc1	i	2.5%	1.6	2.8	2.9	0.734	1.1
49	CCOc1cc(N2CCOCC2)c(OCC)cc1NC(=O)c1ccc(NC(C)=O)cc1	i	-7.2%	-4.6	3.0	0.8	0.743	1.1
50	CC(=O)c1ccc(S(=O)(=O)N(CC(=O)NC2CC2)Cc2ccc(F)cc2)cc1	i	11.5%	0.7	5.0	/	0.702	-3.0
51	Cc1nn(C)c(C)c1S(=O)(=O)N1CCC(CO)(Cc2ccc(Cl)cc2)CC1	i	2.0%	-1.8	0.0	-0.7	0.691	-1.5
52	COc1ccc(C2NC(=O)NC(C)=C2C(=O)OCc2ccccc2)cc1 (stereo unspecified)	i	/	-1.7	2.1	-4.6	0.727	0.2
53	CCC(=O)NC(=S)Nc1ccc(S(=O)(=O)NC(C)C)cc1	i	-0.9%	-5.5	5.5	-6.0	0.723	0.0
54	CCN(CC)CCNC(=O)CSc1c2c(nc3cc(Cl)ccc13)CCCC2	i	-9.0%	5.6	8.8	2.9	0.642	-1.6
55	Clc1ccc(OCCCn2ccnc2)c(Br)c1	/	2.5%	/	5.8	-2.1	0.587	-0.2
56	CCCOc1ccc(C(=O)NCC(c2ccco2)N(C)C)cc1 (stereo unspecified)	i	/	-0.2	-1.7	-1.3	0.704	7.0
57	Cc1cc(C)c(N=Cc2c(O)n(-c3nccs3)c(=O)c3ccccc23)c(C)c1	/	-2.7%	/	6.9	-2.5	0.722	-0.7
58	CC(=O)c1cccc(NC(=O)Nc2csc3c2CCCC3)c1	i	-0.9%	0.8	1.3	3.7	0.681	2.1
59	Cc1ccc(NC(=S)N2CCC(N(C)CC3CCCO3)CC2)cc1 (stereo unspecified)	i	-11.8%	3.0	-0.5	-2.8	0.688	3.5
60	COc1cc(O)c(C(CC(=O)N2CCCC2)c2ccc(N(C)C)cc2)c(OC)c1 (stereo unspecified)	/	-2.3%	/	2.9	1.6	0.697	-5.7

Brought forward from above: 2 compounds, then new ones.
item	SMILES	FGF22 binding	Vif TR-FRET	AF4-AF9 inh	UCH37 DUB inh	RanGTP-Imp inh	E coli growth	HNF4A DNA FP
59	Cc1ccc(NC(=S)N2CCC(N(C)CC3CCCO3)CC2)cc1 (stereo unspecified)	i	-11.8%	3.0	-0.5	-2.8	0.688	3.5
60	COc1cc(O)c(C(CC(=O)N2CCCC2)c2ccc(N(C)C)cc2)c(OC)c1 (stereo unspecified)	/	-2.3%	/	2.9	1.6	0.697	-5.7
61	O=C(NCCOc1ccccc1F)C1CC(=O)N(c2ccc3c(c2)OCCO3)C1 (stereo unspecified)	i	-1.9%	3.1	5.0	/	0.684	-0.6
62	COCCN1Cc2cccc(C(=O)NCCc3ccccc3)c2C1=O	i	8.6%	0.5	1.3	-2.0	0.62	-2.1
63	CC(NC(=O)C(C)N1C(=O)C2C3CC(C(Br)C3Br)C2C1=O)c1ccccc1 (stereo unspecified)	i	/	-25.3	6.9	-3.5	0.671	-0.8
64	Cc1ccc(Oc2cnn(-c3ccccc3)c(=O)c2Br)cc1	i	/	-0.9	-0.2	-3.4	0.711	-4.0
65	Cc1nn(-c2ccccc2)c2[nH]c(=O)c(CNc3ccc(N4CCOCC4)cc3)cc12	/	20.0%	/	2.7	5.8	0.734	2.9

Screens (PubChem BioAssay)

A portion of the library, so the mix of outcomes need not match the whole.
